RE007 growth inh: qHTS Assay for Inhibitors of the HIV-1 protein Vpr. S. pombe RE007 Vpr strain, BacTiter-Glo ATP luminescence, 24 h; control for the full effect not named in the record. Potency, µM (titrated, usually from 92.2 µM), for the others: at the highest dose activity change, negative = less growth. AID 651644, 2012. actives 0.21% (n = 360,000); active = well fitted falling curve with a large enough effect; inconclusive = small, poorly fitted or top-dose-only effect; inactive = no such curve, though single readings can be large or run the other way;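 further: on the % scale 0 is the no-effect control and ±100 the full control effect; nearly all actives have a fitted effect of over 50% in size; the assay follows cell death caused by Vpr and the record does not say whether a fall means rescue or toxicity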
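Fission yeast RE007 carrying one integrated HIV-1 vpr copy, seeded at OD 0.01 in PMG+AL medium with 23 nL pinned compound. Grown 24 h at 30 degrees; viability read by BacTiter-Glo luminescence after 5 min.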
Cruzain inh noDet: qHTS Assay for Promiscuous and Specific Inhibitors of Cruzain (without detergent) | purified cruzain, Z-FR-AMC fluorescence, no detergent | Potency, µM, for the others: max response, negative = inhibition, hits mostly inhibitors | actives 2.3% (n = 200,000); active means well fitted curve in the direction sought with a large enough effect; inconclusive means small, poorly fitted or top-dose-only effect, or another doubt; inactive means no such curve, though single readings can be large; an effect the other way counts as inactive or inconclusive;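 further: plate controls were enzyme without inhibitor for no effect and buffer without enzyme for full effect; nearly all actives have a fitted effect of over 40% in size; top concentration of the series not given in the record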
Target sequence (P25779 123-467 limits assumed): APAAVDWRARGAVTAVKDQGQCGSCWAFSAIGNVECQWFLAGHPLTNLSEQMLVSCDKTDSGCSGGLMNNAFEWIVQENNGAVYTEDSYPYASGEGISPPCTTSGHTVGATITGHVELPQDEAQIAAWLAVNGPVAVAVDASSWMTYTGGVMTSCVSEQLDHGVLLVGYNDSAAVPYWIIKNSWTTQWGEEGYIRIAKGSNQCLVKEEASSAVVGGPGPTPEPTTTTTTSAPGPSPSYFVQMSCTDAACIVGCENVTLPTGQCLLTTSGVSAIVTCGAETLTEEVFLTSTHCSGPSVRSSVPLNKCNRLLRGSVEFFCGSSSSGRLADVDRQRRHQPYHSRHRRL
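Detergent-free condition (0.00005% Triton X-100) in acetate buffer pH 5.5 with DTT. 1.5 nM enzyme and compound were pre-mixed 15 min, then 2 uM Z-FR-AMC substrate added; reaction progress from fluorescence change between first and third reads (60 s).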
Marburg entry inh: qHTS for inhibitors of binding or entry into cells for Marburg Virus. Potency, µM (top dose mostly 37.8 µM), without a hit: at the top dose activity change, negative = inhibition, actives largely listed as inhibitors. AID 540276, 2011. actives 1.8% (n = 300,000). Marburg virus pseudotyped entry inhibition, cell reporter; control for the full effect not named in the record; about a third of the inactives were read at about 46 µM; active = well fitted inhibition curve with a large enough effect; inconclusive = small, poorly fitted or top-dose-only effect, or effect the other way; inactive = flat fitted curve, though single readings scatter; tested in HEK293 cells; about a fifth of its hits are not listed in these tables; further: on the % scale 0 is the no-effect control and ±100 the full control effect; luciferase read-out
SARS PLpro yeast: qHTS of Yeast-based Assay for SARS-CoV PLP. AID 485353, 2010. Potency, µM (titrated, usually from 32.9 µM), for the others: at the highest dose activity, positive = growth rescue. S. cerevisiae expressing SARS-CoV PLpro, growth rescue; control for the full effect not named in the record. actives 0.19% (n = 330,000); further: 0% is about no effect; nearly all actives have a fitted effect of over 55% in size; growth read by luminescence after 48 h
NS1 inh: qHTS Assay for Inhibitors of Influenza NS1 Protein Function; S. cerevisiae slowed by influenza A NS1, growth recovery by OD600; Potency, µM (titrated, usually from 46.1 µM), without a hit: top-dose activity, positive = more growth; actives 0.4% (n = 270,000); further: actives are rising curves; nearly all actives have a fitted effect of over 50% in size
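S. cerevisiae expressing influenza A NS1, grown in glucose, washed, then diluted 1:100 into pH 6.0 -URA galactose medium with 23 nl compound. Growth recovery read as OD600; NS1-free strain serves as control.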
Cruzain Triton: qHTS Assay for Promiscuous and Specific Inhibitors of Cruzain (with detergent). Cruzipain (Trypanosoma cruzi), P25779. purified cruzain, Z-FR-AMC fluorescence, 0.01% Triton. Potency, µM, for inactives: max response, negative = inhibition, most hits filed as inhibitors. actives 0.43% (n = 200,000). AID 1478, 2009; active means well fitted curve in the direction sought with a large enough effect; inconclusive means small, poorly fitted or top-dose-only effect, or another doubt; inactive means no such curve, though single readings can be large; an effect the other way counts as inactive or inconclusive;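 further: plate controls were neutral wells for no effect and buffer without enzyme for full effect; nearly all actives have a fitted effect of over 40% in size; top concentration of the series not given in the record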
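Sodium acetate buffer (100 mM, pH 5.5) containing 5 mM DTT and 0.01% Triton X-100 hosted 1.5 nM cruzain and test compound for 15 min at room temperature. Cleavage of 2 uM Z-FR-AMC was then tracked by fluorescence.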
StopGo reporter: High Throughput Screening for Foot and Mouth Disease Virus Antivirals | human cells with a luciferase reporter of 2A StopGo recoding; control for the full effect not named in the record | actives 1.2% (n = 410,000) | AID 1159524, 2015 | Potency, µM (series often up to 57.9 µM), for inactives: at the top dose signal change, negative = less light; active = well fitted falling curve with a large enough effect; inconclusive = small, poorly fitted or top-dose-only effect; inactive = no such curve, though single readings can be large or run the other way; tested in HEK293T cells; further: on the % scale 0 is the no-effect control and ±100 the full control effect; nearly all actives have a fitted effect of over 45% in size; luciferase light after 4 h
Lassa entry inh: qHTS for Inhibitors of binding or entry into cells for Lassa Virus. actives 1.2% (n = 300,000). Lassa virus pseudotype entry inhibition, cell reporter; control for the full effect not named in the record. Potency, µM (top dose mostly 37.9 µM), for inactives: top-dose activity change, negative = inhibition, hits mostly inhibitors. AID 540256, 2011; active means well fitted inhibition curve with a large enough effect; inconclusive means small, poorly fitted or top-dose-only effect, or effect the other way; inactive means flat fitted curve, though single readings scatter; tested in HEK293 cells; further: on the % scale 0 is the no-effect control and ±100 the full control effect; nearly all actives have a fitted effect of over 50% in size; luciferase read-out
* = called active by the depositor; ? = inconclusive; · = no result given; & = joins results of further samples; [ ] = dose if it differs, or a comment. Unless noted, the call rests on the fitted dose curve; in most records, active means well fitted rising curve with a large enough effect; inconclusive means small, poorly fitted or top-dose-only effect; inactive means no such curve, though single readings can be large or run the other way. Potency means the concentration at half of the fitted maximal effect.

SMILES	RE007 growth inh	Cruzain inh noDet	Marburg entry inh	SARS PLpro yeast	NS1 inh	Cruzain Triton	StopGo reporter	Lassa entry inh
COc1ccc(C(=O)C2CCCN(C(=O)c3noc4c3CCCC4)C2)cc1F (stereo not drawn)	-5%	·	?	-1%	0%	·	-13%	-35%[46.1 µM]
Clc1ccccc1-c1nnc(-c2ccccc2Cl)o1	?	-10%	18%	-37%	-18%	-5.6%	·	-20%
O=C1CC(C(=O)N2CCOCC2)C2(CCCCC2)O1 (stereo not drawn)	2%	-3%	9%	2%	5%	1.0%	·	1%
CC(C)(C)c1ccc(O)c(N=Cc2c(O)ccc3ccccc23)c1	-1%	·	?	-3%	9%	·	-24%	?
COc1ccc(Cn2c(=O)c3[nH]cnc3n(-c3ccc(C)cc3)c2=O)cc1	-2%	·	·	-2%	1%	·	-6%	·
O=C(Nc1ccc(F)cc1)c1ccc(COc2ccccc2)cc1	-16%	13µM*	-14%	0%	19%	-1.1%	2%	1%
CCn1c(CSc2nc3ccccc3[nH]2)n[nH]c1=S	-6%	5%	26%	-1%	2%	0.2%	22%	0%
COC(=O)c1c(=O)n(O)c2ccc(OC)cc2[n+]1[O-]	-9%	-18%	-4%	-2%	?	-6.5%	-12%	14%
Cn1c(CSCc2ccc(Cl)c(Cl)c2)nnc1SCC(=O)Nc1nccs1	-17%	-8%	-22%	4%	-8%	0.0%	?	10%
COC(=O)C1=C(C)NC2=C(C(=O)CCC2)C1c1cn(Cc2ccc(Cl)cc2Cl)nc1-c1ccccc1 (stereo not drawn)	-14%	-3%	?	5%	13µM*	-15%	-4%	7%
Cc1nc2ccccc2c2oc(C(=O)NCC3COc4ccccc4O3)cc12 (stereo not drawn)	3%	?	?	-3%	-184%	-5.2%	?	21µM*
C=CCOc1ccccc1/C=c1\sc2nc(=O)c(C)nn2c1=O	-18%	-7%	?	-17%	16%	-5.1%	-20%	?
COC(=O)C1CCN(C(=O)Cc2ccc(OC)c(OC)c2)CC1	19%	-4%	?	-7%	-4%	-3.0%	-23%	0%
OC(c1ccc(F)cc1)C(CN1CCOCC1)c1ccccc1 (stereo not drawn)	-7%	·	-3%[46.1 µM]	1%	2%	·	-3%	-30%[46.1 µM]
Cc1ccc(C)c(C(=O)COC(=O)CN2C(=O)C3C4CCC(C4)C3C2=O)c1 (stereo not drawn)	12%	·	-15%[46.1 µM]	0%	-2%	·	?	12%
CCC(C)NCCOc1cc(C)cc(C)c1C (stereo not drawn)	-4%	·	?	0%	-2%	·	-15%	-16%
COC(=O)c1cc(C)nc2c1c(=O)nc(SCc1cc(C)ccc1C)n2C1CC1	·	13%	·	·	·	-2.5%	?	-2%[46.1 µM]
CCCS(=O)(=O)N1CCCC(C(=O)NCC(OC)OC)C1 (stereo not drawn)	3%	·	5%	0%	·	·	-5%	13%
Cc1nnc(SCC(=O)N2CCN(S(=O)(=O)c3ccccc3)CC2)[nH]c1=O	8%	-10%	-17%&-17%	3%	-11%	-0.6%	-2%	9%
Cc1ccc(-c2nc(CSCC(=O)NCCCN3CCOCC3)c(C)o2)cc1	21%[3.69 µM]	-6%	-3%	3%	-9%	-2.2%	-6%	?
Cc1cc(Oc2c(C(F)(F)F)oc3c(CN4CCC(C)CC4)c(O)ccc3c2=O)cc(C)c1Cl	·	4%	?	·	·	-1.5%	-20%	12%[46.1 µM]
O=C(COC(=O)/C=C/c1cc(Br)ccc1F)NC1CC1	-9%	·	?	5%	·	·	-15%	-1%[46.1 µM]
CC(=O)Oc1c(C(=O)c2nnc(C)o2)c(=O)n(Cc2ccccc2)c2ccccc12	16%	19%	-23%	1%	?	-5.7%	3%	?
CCOC(=O)c1sc2ccccc2c1S(=O)(=O)Nc1cc(OC)ccc1OC	·	6%	·	·	·	-5.0%	36%[activator]	-20%[46.1 µM]
CCOc1cc(CN2CCSCC2)ccc1O	10%	-1%	4%	-1%	2%	4.5%	18%	1%
COc1cccc(CSc2nc(N)cc(N)n2)c1	-19%	·	-1%[46.1 µM]	2%	0%	·	31%[activator]	27%[46.1 µM]
COc1ccc(C(=O)NC(=S)NCc2ccccc2)cc1OC	-3%	·	?	2%	-4%	·	-13%	?
CC(=O)c1sc2nc(-c3ccco3)ccc2c1N	?	·	?	-4%	-3%	·	0%	24%[46.1 µM]
O=C(NCCN1CCOCC1)C1CC(=O)N(c2ccc(F)cc2)C1 (stereo not drawn)	11%	·	21%[46.1 µM]	4%	-4%	·	9%	-26%[46.1 µM]
Cc1ccc(-n2c(SCC(=O)Nc3ccc4c(c3)OCCO4)nnc2-c2ccco2)cc1	4%	17%	-16%&-16%	·	-59%	-0.2%	?	?
COc1ccc2c(C)c(CC(=O)N3C[C@H]4C[C@@H](C3)c3cccc(=O)n3C4)c(=O)oc2c1OC	-12%	·	·	-1%	-8%	·	-19%	·
CCOc1ccc2oc(C(=O)N3CCCN(C)CC3)c(C)c2c1	0%	·	?	-12%	·	·	9%	?
O=C(c1ccco1)N1CCN(C(=O)c2cc3cc([N+](=O)[O-])ccc3oc2=O)CC1	-4%	·	-14%[46.1 µM]	0%	6%	·	12%	15%
CC12CC(NC(=O)N1c1cccc(C(=O)NCc3ccccc3)c1)c1ccccc1O2 (stereo not drawn)	·	11%	·	?	29%	9.6%	·	·
CC1CCN(C(=S)NC(=O)c2ccc(C(C)(C)C)cc2)CC1	-19%	·	·	-12%	-60%	·	3%	·
Cc1ccc(-c2cc(C(=O)NCc3ccco3)c3ccccc3n2)s1	2%	12%	?	-10%	4%	-12%	-17%	-18%
Cc1ccccc1N1CCN(C2CCCN(C(=O)CCn3cnnn3)C2)CC1 (stereo not drawn)	25%	·	?	2%	5%	·	-6%	-10%
CCc1nnc(NC(=O)CSc2nnc(C3CCCCC3)n2-c2ccccc2)s1	9%	0%	-5%	0%	-6%	-2.5%	-15%	?
COc1cc2c3c(c1OC)C1(C=CC(=NNC(N)=O)C=C1)CC3N(C(C)=O)CC2 (stereo not drawn)	15%	-16%	5%	5%	-5%	-4.5%	-10%	22%
Cc1ccc(NC(=O)CN(C)C(=O)Cc2ccc(Cl)c(Cl)c2)cc1	-9%	·	0%[46.1 µM]	-16%	-7%	·	-1%	5%[46.1 µM]
C/C(CC(=O)NC(C)c1ccccc1)=N\NC(N)=S (stereo not drawn)	3%	·	5%[46.1 µM]	4%	-4%	·	-5%	4%
CC(=O)NNC(=S)Nc1cc(S(=O)(=O)N(C)C)ccc1C	1%	-7%	?	10%	9%	5.5%	-20%	6%
CCOC(=O)[C@@H]1[C@H]2COc3ccc(Br)cc3[C@@H]2N2C(=O)N(c3ccccc3)C(=O)[C@@]12C	13%	·	·	-1%	10%	·	-8%	·
CCc1ccccc1NS(=O)(=O)c1cc2c3c(c1)CCN3C(=O)CC2	-4%	·	-8%	-3%	·	·	43%[activator]	16%
CCOc1ccc(NC(=O)c2sc(N3CCOCC3)nc2-c2ccccc2)cc1	-24%	23%	19%	9%	0%	-5.8%	-25%	?
CC(=O)Nc1cccc(NC(=O)CSc2nccn2Cc2ccc3c(c2)OCO3)c1	·	0%	·	·	·	-0.7%	-25%	-4%[46.1 µM]
CC(C)Oc1cccc(OCCN2C(=O)c3ccccc3C2=O)c1	1%	·	?	1%	-4%	·	41%[activator]	-18%
O=C(CSc1nnc(Cc2cc(=O)[nH]c(=O)[nH]2)n1-c1ccccc1)N1CCCCC1	4%	-3%	-3%	0%	-3%	2.8%	-20%	·
CC(OC(=O)c1ccccc1C(=O)O)c1ccccc1 (stereo not drawn)	-8%	·	5%	·	·	·	2%	-5%
O=C(CCCOC(=O)c1ccc(O)cc1O)c1ccc(F)cc1	3%	·	-2%	2%	·	·	8%	2%
Continued.
SMILES	RE007 growth inh	Cruzain inh noDet	Marburg entry inh	SARS PLpro yeast	NS1 inh	Cruzain Triton	StopGo reporter	Lassa entry inh
COc1ccc(C(=O)N/C(=C\c2ccccc2)C(=O)N2CCOCC2)cc1	5%	·	-1%	-3%	6%	·	5%	10%
CCOC(=O)CC(NC(=O)c1cc2cc(Br)ccc2oc1=O)c1cccc([N+](=O)[O-])c1 (stereo not drawn)	-5%	13%	?	3%	-2%	-2.7%	-9%	3%
O=C1CCCc2sccc2N1	0%	4%	19%	16%	15%	7.7%	·	-5%
Cc1ccc(NS(=O)(=O)c2ccc(C(=O)N3CCCCCC3)cc2)cc1	-2%	·	?	3%	·	·	-23%	?
O=C(NCC(=O)N1CCCC(C(F)(F)F)C1)c1ccc(Oc2ccccc2)cc1 (stereo not drawn)	-4%	·	·	-5%	?	·	?	·
CCOC(=O)C1CCN(C(=O)COc2ccc(S(=O)(=O)NC(C)(C)C)cc2)CC1	7%	-4%	-8%[46.1 µM]	5%	-12%	0.0%	12%	-20%
CN(CC(=O)N1CCN(c2cccc(Cl)c2)CC1)S(=O)(=O)c1cccs1	2%	?	-25%	3%	-57%	-7.9%	·	2%
Cn1c(=O)c(=O)n(C)c2cc(S(=O)(=O)N3CCN(c4ccc(F)cc4)CC3)ccc21	-9%	9%&-4%	11%[46.1 µM]	-45%	-5%	1.8%&-0.6%	-3%&-9%	?
CC[n+]1c(C)sc2c3ccsc3ccc21	2%	·	-2%	2%	·	·	3%	?
NC(=O)c1cc(S(=O)(=O)NCCCc2ccccc2)cs1	1%	·	·	2%	-2%	·	-11%	·
COc1ccccc1CNC(=O)COC(=O)c1cccc(S(=O)(=O)N2CCOCC2)c1	-11%	·	2%[46.1 µM]	·	·	·	-7%	-17%

Compound activity as filed in PubChem BioAssay.
